# Bioassay records deposited in PubChem by several laboratories.
# Env fusion inh: HIV envelope-mediated fusion inhibition; HeLa-JRFL Env/CEM21 cell fusion, luciferase; inhibition, % at 12.3 µM; 360,000 compounds, 1.1% hits; AID 651610;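 active means mean replicate inhibition score of at least 50 and every replicate individually at or above 50; inconclusive means only one of the two criteria met; inactive means mean below 50 and not all replicates reaching 50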;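 further: 0% = plate neutral controls and 100% = maraviroc near 300 nM; one replicate is shown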
# eIF4H FP inh: inhibitors of RNA binding by human eIF4H. inhibition, % at 35 µM. Q15056. eIF4H fluorescence polarization binding assay. 290,000 compounds, 0.94% hits;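 active means 50% or more with normal probe brightness, or confirmed in later tests; inconclusive means above 50% with abnormal brightness, or retests that disagree; inactive means below 50% or failed in later tests; about a fifth of its hits are not listed in these tables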;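 further: calls also rest on retests at 20 µM and on dose response follow-up; 0% = protein and probe with vehicle and 100% = probe without protein; strong numbers were not always called active; many hits fall short of the cut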
# MT1-MMP act inh: MT1-MMP (human) activation inhibition; P50281; HT1080 RFP-PRO-GFP cells, GFP/RFP ratio fluorescence, overnight; percent of plate control window, DMSO zero; GFP/RFP ratio change, % at 20 µM; 360,000 compounds, 0.061% hits; AID 651647;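 active means GFP/RFP ratio change of at least 30% with cell ATP level not reduced by more than half and red fluorescence within 50% of control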; further: strong numbers were not always called active
#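 Assay system: HT1080 RFP-PRO-GFP cells | Dosing: 20 µM single dose, 1% DMSO | Incubation: Cells overnight before dosing, compound overnight, 37 °C, 5% CO2 | Evaluation: GFP/RFP fluorescence ratio | Control set: DMSO-only wells and HT1080 RFP-L50D-GFP cell wells as references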
# PABP polyA inh: blocks human PABP binding to poly(A) RNA; inhibition, % at 35 µM; 290,000 compounds, 1% hits; AID 2014; fluorescence polarization; P11940;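 active means 50% or more with normal probe brightness, or confirmed in later tests; inconclusive means above 50% with abnormal brightness, or retests that disagree; inactive means below 50% or failed in later tests; about a fifth of its hits are not listed in these tables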;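 further: calls also rest on retests at 20 µM and on dose response follow-up; controls were probe without protein and protein plus probe with vehicle; some compounds called inactive have numbers as strong as hits; many hits fall short of the cut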
# Target sequence (P11940 whole entry, looked up): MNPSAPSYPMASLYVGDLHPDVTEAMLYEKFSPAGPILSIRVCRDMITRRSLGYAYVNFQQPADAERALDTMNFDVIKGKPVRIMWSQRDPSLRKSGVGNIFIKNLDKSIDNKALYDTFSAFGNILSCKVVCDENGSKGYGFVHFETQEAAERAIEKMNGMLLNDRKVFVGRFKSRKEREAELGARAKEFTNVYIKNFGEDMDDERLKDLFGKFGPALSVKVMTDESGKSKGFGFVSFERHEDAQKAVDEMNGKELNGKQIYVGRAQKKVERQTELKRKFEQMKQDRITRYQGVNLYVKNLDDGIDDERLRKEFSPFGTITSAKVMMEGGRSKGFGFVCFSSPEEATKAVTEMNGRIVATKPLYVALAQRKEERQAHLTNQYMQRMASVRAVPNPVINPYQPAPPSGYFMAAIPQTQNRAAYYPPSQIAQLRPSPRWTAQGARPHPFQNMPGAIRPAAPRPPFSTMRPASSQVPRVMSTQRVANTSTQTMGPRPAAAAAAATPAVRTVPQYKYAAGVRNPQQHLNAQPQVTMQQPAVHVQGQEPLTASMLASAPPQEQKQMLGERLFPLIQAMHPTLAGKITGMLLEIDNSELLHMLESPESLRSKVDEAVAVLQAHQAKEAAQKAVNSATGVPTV
# Yeast UUG start: alters start codon recognition fidelity in yeast. S. cerevisiae UUG-firefly luciferase reporter, luminescence/redox ratio. activity score, % at 18.7 µM. 350,000 compounds, 0.13% hits;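 active means replicate mean at a twofold rise or more, about +100% in these data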;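 further: firefly luciferase made from a UUG start codon reports start codon fidelity; reporter light over untreated wells divided by growth signal over untreated wells; some hits fall short of that in this replicate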
# CSC inhib: cancer stem cell inhibition. inhibition, % at 7.5 µM. cancer stem cell-like cells viability, luminescence. 300,000 compounds, 1.1% hits;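 active means mean at 75% or more and at least half the replicates too; inconclusive means mean and replicates disagree; tested in HMLE shEcad cells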;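 further: 0% = median of negative and 100% = median of positive control wells; the first replicate is given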
# Rce1 inhib: blocks yeast Ras-converting enzyme; Q03530; yeast membranes, quenched prenylated peptide cleavage fluorescence; calls only; 290,000 compounds, 0.27% hits; AID 2563;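 active means fall in fluorescence gain of 50% or more versus controls, with final raw signal at or below 3038400; inconclusive means same 50% fall but final raw signal above 3038400; inactive means fall in fluorescence gain under 50%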;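 further: plate controls were neutral control wells for no effect and wells lacking membranes for full effect; tested at 10 µM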
# Target sequence (Q03530 whole entry, looked up): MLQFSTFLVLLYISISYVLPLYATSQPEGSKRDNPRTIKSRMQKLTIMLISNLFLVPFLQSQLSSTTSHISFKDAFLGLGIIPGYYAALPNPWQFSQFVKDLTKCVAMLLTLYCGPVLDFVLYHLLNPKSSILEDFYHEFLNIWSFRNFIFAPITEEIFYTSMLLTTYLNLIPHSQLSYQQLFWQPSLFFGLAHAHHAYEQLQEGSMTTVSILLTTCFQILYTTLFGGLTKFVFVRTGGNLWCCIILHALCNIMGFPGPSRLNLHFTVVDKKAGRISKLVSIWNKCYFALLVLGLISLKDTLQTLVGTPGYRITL
# MT1-MMP act inh RFP: second read-out of MT1-MMP act inh, no call of its own (marks repeat the call); RFP signal change, %; measured here: RFP expression control read;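 0 = vehicle wells; hits needed this value within 50% of zero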
# Active calls of the source: *; i = inactive; ? = inconclusive; / = no result given.
SMILES,Env fusion inh,eIF4H FP inh,MT1-MMP act inh,MT1-MMP act inh RFP,PABP polyA inh,Yeast UUG start,CSC inhib,Rce1 inhib
CCOc1ccc(NS(=O)(=O)c2cc(C(=O)N3CCC3)ccc2Cl)cc1,6,/,2,2,/,-21,4,/
O=C1[C@H]2[C@@H](c3ccc(F)cc3)N3C(=O)N(c4ccc(Br)cc4)C(=O)[C@@]3(Cc3ccccc3)[C@H]2C(=O)N1C1CCCCC1,?,8,-3,-6,-1,-9,8,i
O=C(CCc1nc(-c2cccs2)no1)Nc1cnc2ccccc2c1,-5,-18,1,-1,-2,-21,-17,i
Cc1nc(-c2ccc(S(=O)(=O)N3CCN(CCc4ccccc4)CC3)s2)cs1,0,2,-1,-17,-4,-4,1,/
CCC(C)C(NC(=O)C1CCC(C)CC1)C(=O)Nc1ccc(OC)cc1 (centres undefined),-1,7,-10,-8,8,-16,-1,i
COc1ccc(Nc2nc(N3CCCC3)nc(N3CCOCC3)n2)cc1,19,/,2,-2,/,-5,12,i
Cn1c(=O)[nH]c(=O)c2c1nc(NCCc1ccccc1)n2CC(O)COc1ccccc1 (centres undefined),/,-2,-2,1,3,2,5,i
CCC(C(=O)NC1CCCC1)n1c2ccccc2c2nc(=O)cc(C)n21 (centres undefined),-27,/,-2,7,/,1,/,/
CC(CN1C(C)CCCC1C)OC(=O)c1ccccc1Br (centres undefined),15,-2,3,2,-4,-5,-20,i
Oc1ccc(C(c2nnnn2C2CCCC2)N2CCc3ccccc3C2)cc1 (centres undefined),/,2,/,/,9,5,-3,i
CC(C)(C)NC(=O)C(c1cccs1)N(Cc1cccs1)C(=O)c1csnn1 (centres undefined),44,-2,-3,-1,1,-6,-10,i
COc1ccc2c(c1)[nH]c1c(=O)n(CC3CCCO3)cnc12 (centres undefined),-15,-4,10,4,0,-5,1,i
COc1ccc([N+](=O)[O-])cc1NC(=O)C(C)N(C)Cc1ccc(Br)cc1 (centres undefined),/,4,-4,-11,0,-9,-4,i
CCOC(=O)c1c(C2CC2)csc1NC(=O)CSCc1c(C)noc1C,0,7,3,-5,-9,-13,14,i
COc1ccc(CC(=O)NC2CC(C)(C)NC(C)(C)C2)cc1OC,6,-3,3,4,-1,1,-5,i
Cc1ccc(-n2ncc3c2CCCC3NC(=O)c2ccccc2N2CCOCC2)cc1C (centres undefined),21,-13,0,-8,3,-21,-3,i
CCOc1cccc(-c2cc(C(=O)N/N=C/c3ccc(OC)c(CN4CCOCC4)c3)c3ccccc3n2)c1,-32,-2,1,-1,1,/,/,i
Cc1cc(NC(=O)c2cc3n(n2)C(C(F)(F)F)CC(c2ccco2)N3)no1 (centres undefined),-83,26,2,0,-11,-12,-1,i
CCOc1ccc(NC(=O)c2nn(C)cc2Br)cc1,-41,-2,-1,1,0,-46,-1,i
CCN(CC)C(=O)c1[nH]cnc1C(=O)N[C@@H](C)c1ccccc1,-10,/,-2,1,/,-7,14,/
COc1ccc(N2CCN(C(=O)COC(=O)CCOc3ccccc3C)CC2)cc1,1,/,6,4,/,9,-11,i
Cc1cc(-c2ccco2)n(CC(=O)NCc2ccccc2)n1,-13,-5,2,5,-14,-21,-2,i
O=C(Nc1cccc([N+](=O)[O-])c1)c1ccc2c(c1)OCCO2,-40,-6,19,-7,1,5,/,i
CCC1(C)Cc2c(c(=O)n(-c3ccccc3)c3ncnc(N)c23)CO1 (centres undefined),/,3,-1,2,-3,-16,-18,i
Nc1cc(=O)[nH]c(SCCOc2ccccc2)n1,2,10,-2,0,0,/,22,i
O=C(Cn1cc([N+](=O)[O-])ccc1=O)N1CCc2ccccc2C1,18,/,3,4,/,4,15,/
Cc1ccc(C(=O)N/N=C/c2ccc(N3CCOCC3)cc2)c(C)c1,0,14,3,1,-5,/,20,i
O=C(CSc1cccc[n+]1[O-])Nc1ccc(Cl)cc1F,/,/,1,4,/,-14,3,/
COc1ccc(C2C(C#N)=C(N)Oc3cccc(O)c32)cc1 (centres undefined),-13,6,-13,-4,11,-4,-8,i
Cc1ccc(NC(=S)Nc2cccc3cnccc23)cc1C,19,34,-3,-7,28,-12,?,/
CCOC(=O)Cn1cc(/C=N/NC(=O)CC#N)c2ccccc21,-3,-9,1,1,-4,-5,-7,i
O=C(COC(=O)c1cccc(OC(F)F)c1)NCC1CCCO1 (centres undefined),5,/,2,2,/,/,-17,/
CC(=O)N1CCC(Nc2ccc(C)cc2)CC1,-13,-7,1,-2,-6,-18,-5,i
Cc1sc2nc(CN3CCOCC3)[nH]c(=O)c2c1-c1ccccc1,-12,-2,0,2,-22,/,/,i
COc1ccc2c(c1)CCc1c(C(=O)N3CCCCCC3)noc1-2,/,-8,4,1,-2,-7,-6,i
CCc1nnc(NC(=O)c2ccc(S(=O)(=O)N3CCc4ccccc4C3)cc2)s1,5,-16,0,-2,4,/,4,i
Cc1ccc(CNC(=O)Nc2nnc([C@@H]3C[C@H](O)[C@@H](CO)O3)s2)cc1,-19,/,1,6,/,-19,/,/
CCCC(=O)Nc1ccc(C(=O)Nc2nc(CC(=O)OCC)cs2)cc1,-29,-12,4,-3,-3,-16,-5,i
O=C(Nc1nnc(-c2ccncc2)o1)c1ccc2ccccc2c1,3,13,2,5,1,-14,16,i
Cc1[nH]c(=O)[nH]c(=O)c1S(=O)(=O)N1CCN(c2cccc(Cl)c2)CC1,/,-7,1,0,12,-14,-8,i
CC(C)CCNC(=O)C(NS(=O)(=O)c1ccc2c(c1)c(=O)n(C)c(=O)n2C)c1ccccc1 (centres undefined),-27,2,-2,2,3,-11,1,i
CCC(Sc1nc2ccc(N)cc2s1)C(=O)Nc1nccs1 (centres undefined),23,10,7,5,-1,-9,7,i
NS(=O)(=O)c1ccc(-n2nncc2-c2ccco2)cc1,12,7,0,3,1,2,-3,i
CC(=O)c1ccccc1OCCCN1CCCCC1,/,7,3,1,-2,-15,0,i
Cc1oc2c(CN3CCCCC3C)c(O)ccc2c(=O)c1-c1ccc(Br)cc1 (centres undefined),8,-2,-9,-7,1,-6,-9,i
COc1ccc(OC)c(NC(=O)CSc2nnc3ccc(-c4ccccn4)nn23)c1,/,/,3,2,/,-17,-6,i
CC1=C(C(=O)N(C)C)CC(CC(=O)NCCN2CCOCC2)C(=O)N1Cc1ccccc1 (centres undefined),-2,/,6,8,/,-15,/,/
N#Cc1c(C(F)(F)F)cc(-c2cccc(Cl)c2)[nH]c1=O,-67,-10,-2,2,9,-18,37,i
OC(COc1ccc(Br)cc1)Cn1ccnc1 (centres undefined),-3,-9,1,-1,1,/,11,i
C/C(=N/NC(=O)Cc1cccc2ccccc12)c1cccs1,/,-10,0,-11,-10,-24,6,i
CCOc1ccc(C)cc1S(=O)(=O)Nc1ccc(Cl)cn1,-48,-1,1,4,8,-11,-10,i
Cc1ccc(N2CC(C(=O)NCCS(=O)(=O)N3CCN(c4ccccc4F)CC3)CC2=O)cc1 (centres undefined),-7,-2,3,1,4,-2,-7,i
Nc1nc(SCC(=O)Nc2cc(C(F)(F)F)ccc2N2CCOCC2)n[nH]1,-6,3,6,3,-16,/,-13,i
Cc1ccc(NC(=O)CC2S/C(=N/N=C3\CCCc4ccccc43)NC2=O)cc1 (centres undefined),-15,-6,3,0,-3,/,39,i
CCN(CC)C(=O)C(C)OC(=O)COc1ccc(Cl)cc1C (centres undefined),-9,0,6,-1,5,-7,-1,i
CC(C)OC(=O)NCCOC(=O)Nc1ccc(Cl)c(Cl)c1,2,2,5,-1,-9,10,-2,i
Cc1cc(Br)c(NC(=O)CN2C(=O)NC3(CCOc4ccccc43)C2=O)c(Br)c1 (centres undefined),-8,/,-1,0,/,-13,/,/
O=C(c1ccc(-c2ccccc2)cc1)N1CCC2CC1c1cc(-c3ccc4c(c3)OCO4)ccc12 (centres undefined),-1,/,0,-7,/,-14,/,/
Cc1[nH]n(-c2ccccc2)c(=O)c1N=Nc1c(O)cc(S(=O)(=O)N(C)C)c2ccccc12,?,/,76,-3,/,-14,-3,i
CC(=O)Oc1ccc(NC(=O)Cc2ccccc2)c(C(=O)O)c1,6,-4,-5,0,10,-18,2,i

# (listing goes on)
SMILES,Env fusion inh,eIF4H FP inh,MT1-MMP act inh,MT1-MMP act inh RFP,PABP polyA inh,Yeast UUG start,CSC inhib,Rce1 inhib
COc1cc(NC(=S)N2CCCC(CO)C2)cc(OC)c1 (centres undefined),-7,-8,1,5,-4,-29,-9,i
CCOC(=O)c1cc(C)n(Cc2ccc(OCC)c(OC)c2)c1C,34,1,0,-7,-1,9,1,i
Cc1c(C(=O)NCCSCc2c(F)cccc2Cl)cnn1-c1ccc(Cl)cc1,4,-2,5,-2,-6,-1,38,i
C[C@H]1CN(S(=O)(=O)c2ccc3c(c2)OCCO3)CCN1S(=O)(=O)c1c(F)cccc1F,-6,/,3,-1,/,-16,/,/
CCOC(=O)c1ccc(N2C(=O)C3C(C2=O)C(C(=O)c2ccc(Cl)cc2)N2CCCC32)cc1 (centres undefined),16,?,-21,5,?,-3,0,i
CCCCCC(O)(CCN1CCCCC1)c1ccc(OCC)cc1 (centres undefined),10,1,-2,4,8,/,-7,i
CCN1C(=O)[C@H]2[C@@H](c3ccc(-c4ccc(C(C)=O)cc4)cc3)N3CCC[C@@]3(C(=O)OC)[C@H]2C1=O,-70,/,-4,-3,/,10,6,i
CCOc1ccc(Br)cc1S(=O)(=O)NC1CCCC1,/,/,-3,2,/,-1,-4,/
FC(F)(F)c1cc(CCN2CCNC[C@@H]2c2ccccc2)cc(C(F)(F)F)c1,-4,/,0,1,/,-9,32,/
CCCCN(CC)CCNC(=O)c1cc2c(=O)n(C)c3ccccc3c2s1,-2,3,3,3,21,-2,18,i
CCOc1ccc(C(=O)Nc2ccc(S(=O)(=O)N3CCOCC3)cc2)cc1OCC,/,2,4,-4,-2,12,-11,i
O=C(COC(=O)c1ccccc1Cl)Nc1cccc(S(=O)(=O)N2CCCCC2)c1,10,/,3,-1,/,-19,/,/
Oc1ccccc1C=NCC(O)c1ccccc1 (centres undefined),-25,-10,-5,-1,-6,12,6,i
Cc1ccc(S(=O)(=O)Oc2ccc(/C=N/NC(=O)c3c(Cl)cnn3C)cc2)cc1,-11,8,7,5,2,-20,1,i
COc1ccc(/C=C2\Oc3cc(OCC(N)=O)ccc3C2=O)cc1OC,25,-5,-4,-4,-6,15,-2,i
CCOc1ccc(CCNC(=O)COC(=O)c2cccc(N(C)C)c2)cc1OCC,-112,/,2,2,/,/,/,i
CN(C)/C=N/c1sc2c(c1C#N)CCC2,/,13,-2,-2,31,-10,-18,i
COc1cc(C(=O)Nc2sc(C)c(C)c2C(=O)O)cc(OC)c1OC,-2,0,13,-2,13,/,13,i
CC(NC(=O)C1CCN(S(=O)(=O)c2cccs2)CC1)c1cccc(Cl)c1 (centres undefined),2,/,0,-3,/,-4,-4,/
N/C(=N\OC(=O)CCc1ccccc1)c1cccc(Br)c1,-26,0,1,-3,14,-8,-11,i
O=C(CCCCCN1C(=O)[C@@H]2Cc3ccccc3CN2C1=O)N[C@@H](Cc1ccc(O)cc1)C(=O)O,/,-6,1,4,4,-7,2,i
CCOC(=O)C1CCN(C(=O)CCCn2c(=O)c3cccn3c3cccnc32)CC1,-2,-6,0,1,-2,5,-20,i
O=C(NNc1ccc(Cl)cc1)c1sccc1Cl,4,-10,-2,-3,3,/,94*,/
CNc1ccc(/C=C(\C#N)C(=O)Nc2ccccn2)cc1[N+](=O)[O-],-19,?,8,2,?,-3,5,i
